Screens deposited in PubChem BioAssay by several laboratories.
T cruzi repl – T. cruzi replication inhibition. actives 1.4% (n = 300,000). T. cruzi beta-gal in NIH3T3, luminescence, 90 h. inhibition, % (concentration not given with the values);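 active means mean inhibition across valid replicates above about 55%, limit read from the data; inconclusive means mean below that limit but half or more replicates reach it; inactive means mean below it, under half of replicates reach it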;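 further: signal also drops with host cell toxicity which is not excluded here; 0% = plate median of DMSO wells and 100% = zero luminescence signal; higher percent means less beta-gal luminescence so fewer parasites; stock transfer was 50 nL into about 50 µL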
ALR H2O2 inh – blocks human ALR sulfhydryl oxidase activity | purified ALR, DTT oxidation, H2O2 HRP-luminol luminescence | actives 3.8% (n = 290,000) | AID 485317 | P55789 | inhibition, % (no concentration beside the values);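 active means mean and each replicate at 75% or more; inconclusive means only one of the two met; inactive means neither met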;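 further: stock transfer was 7.5 nL into about 7.5 µL; 0% = neutral wells and 100% = wells with inactivated enzyme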
Target sequence (P55789 whole entry, looked up): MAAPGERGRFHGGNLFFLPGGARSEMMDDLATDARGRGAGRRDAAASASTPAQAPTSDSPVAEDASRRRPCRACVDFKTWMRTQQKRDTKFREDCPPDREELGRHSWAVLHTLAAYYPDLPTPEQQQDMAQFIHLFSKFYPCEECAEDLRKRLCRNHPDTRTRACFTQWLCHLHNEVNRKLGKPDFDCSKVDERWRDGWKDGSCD
LANA-H2A inh – blocks KSHV LANA binding to histone H2A/H2B. inhibition, % (concentration not given with the values). cell-free LANA-H2A/H2B peptide, fluorescence polarization. Q9QR71. actives 0.6% (n = 320,000); in the data active means inhibition mostly above about 10%, no sharp cut-off; inactive means mostly below about 6.7%;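 further: stock transfer was 7.5 nL into about 10 µL; 0% = median of vehicle wells and 100% = median of positive control wells; one replicate is shown; the record names a cut of 25% in any replicate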
Calb FLC – affects C. albicans growth with fluconazole; C. albicans CaCi-2 (fluconazole-resistant clinical isolate) + fluconazole, Alamar Blue growth, 48 h; growth inhibition, % (no concentration beside the values); actives 0.57% (n = 300,000); AID 1979;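 active means most replicates above 75%; inconclusive means exactly half above 75%; inactive means most below 75%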;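 further: all wells also contain fluconazole at 8 µg/ml as a sub-toxic cotreatment; 0% = median of DMSO wells and 100% = median of geldanamycin control wells; wells of about 8 µL received 7.5 nL stock; the first replicate is given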
Beta cell apopt – blocks beta cell apoptosis | INS-1E cytokine-induced death, ATP luminescence, 48 h; percent of positive-control rescue, neutral wells zero | protection from apoptosis, % (test concentration not listed) | actives 0.8% (n = 300,000);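 active means all replicates at 75% or more, or half of them and the mean; inconclusive means half reach 75% but not the mean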;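 further: 0% = cytokine-treated negative control wells and 100% = positive control rescue; higher means more ATP so stronger rescue from cytokine killing; wells of about 40 µL received 100 nL stock; the first replicate is given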
rRNA inh HTS – inhibitors of bacterial rRNA selective over humanized ribosomes | E. coli WT GFP vs humanized-ribosome RFP mutants, fluorescence, 24 h; hits give low values; DMSO median 0, no signal -100 | GFP signal change (wild-type ribosome), % (concentration not given with the values) | actives 1.6% (n = 350,000) | AID 720706;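 active means significant combined selectivity score with lowered wild-type GFP, culture density cut under 30%, mutant RFP and density less affected; inactive means any of these conditions unmet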; further: one replicate is shown; some compounds called inactive have numbers as strong as hits
Bfl-1 A1 inh – inhibitors of the anti-apoptotic protein A1, read as caspase activation. actives 0.066% (n = 330,000). MEF A1-2A-BIM cells, Caspase-Glo 3/7 luminescence, 3 h; percent of clofoctol response, vehicle zero. caspase activation, % (no concentration beside the values);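 active means over half of replicate activation scores above 10%, or exactly half above 10 with the replicate mean above 10; inconclusive means replicate mean below 10 yet half the replicates above 10; inactive means over half of replicates below 10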;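 further: wells of about 30 µL received 50 nL stock; many hits fall short of the cut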
Beta2AR agonist – activates human beta-2 adrenergic receptor causing internalization; P07550; Am2.2-beta2AR cells, FAP receptor internalization, flow cytometry; reference of the scale not given here; response, % (concentration not given with the values); actives 0.43% (n = 340,000); AID 504454;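 active means response above a set limit, near 3 SD of response in nonfluorescent compounds, cut at about 42% in these data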;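 further: stock transfer was 100 nL into about 11 µL; a reference agonist was the positive control; negative values mostly stem from fluorescent compounds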
Target sequence (P07550 whole entry, looked up): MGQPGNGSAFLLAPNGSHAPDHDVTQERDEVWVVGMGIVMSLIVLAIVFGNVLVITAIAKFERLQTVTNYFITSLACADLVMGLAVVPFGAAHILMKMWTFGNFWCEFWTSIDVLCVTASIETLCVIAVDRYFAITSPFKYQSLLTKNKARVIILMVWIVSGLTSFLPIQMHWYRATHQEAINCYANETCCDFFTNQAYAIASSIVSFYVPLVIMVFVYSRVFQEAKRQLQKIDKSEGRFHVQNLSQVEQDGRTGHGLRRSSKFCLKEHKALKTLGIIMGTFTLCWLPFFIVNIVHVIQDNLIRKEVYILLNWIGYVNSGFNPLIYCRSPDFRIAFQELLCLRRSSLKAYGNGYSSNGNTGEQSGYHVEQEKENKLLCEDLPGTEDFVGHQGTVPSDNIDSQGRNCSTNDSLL
rRNA inh HTS OD600 – further read-out of rRNA inh HTS, marked with its call; OD600 change, %; measured here: OD600 growth;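 optical density of the mix in the first replicate; 0 = DMSO median and -100 = no signal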
rRNA inh HTS RFP – further read-out of rRNA inh HTS, marked with its call; RFP signal change, %; measured here: RFP humanized mutant strains;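 first replicate; 0 = DMSO median and -100 = no signal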
* = called active by the depositor; ? = inconclusive; · = not tested or not shown; & = joins results of further samples. These rows are one share of the data (hit frequency here may not be typical).

SMILES	T cruzi repl	ALR H2O2 inh	LANA-H2A inh	Calb FLC	Beta cell apopt	rRNA inh HTS	rRNA inh HTS OD600	rRNA inh HTS RFP	Bfl-1 A1 inh	Beta2AR agonist
O=C(CC1(O)C(=O)N(C/C=C/c2ccccc2)c2ccccc21)c1ccccn1 (centres undefined)	28	-20	0.1	-44	-3	·	·	·	0.8	15
S=c1[nH]nc(-c2ccccc2)n1Cc1ccccc1	3	49	-6.6	-7	-2	·	·	·	0.0	9
COc1cc(/C=N/NC(N)=S)ccc1OCC(=O)Nc1ccc(C)c(C)c1	-6	1	0.0	23	17	·	·	·	0.4	5
O=C(NCCCn1ccnc1)c1ccc(S(=O)(=O)N2CCCCCC2)cc1	-8	-10	2.9	16	1	·	·	·	-0.1	-2
Cc1ccc(CNC(=O)c2ccc(N3CCC4(CC3)CC(c3ccccc3)=NO4)c([N+](=O)[O-])c2)cc1	48	-5	-5.5	3	14	5	-5	1.7	-1.1	-10
COC(=O)CN(c1ccc2c(c1)OCCO2)S(=O)(=O)c1ccccc1	-18	-1	-1.4	-4	-7	·	·	·	-0.1	28
COc1ccccc1NC(=O)NCCc1c[nH]c2ccccc12	-4	·	-6.5	-1	-7	-22*	-15*	-3.6*	-0.5	6
C[C@@H](C(=O)NCCc1ccccc1F)N1C(=O)N2CCc3c([nH]c4ccccc34)[C@@]2(C)C1=O	23	-1	4.7	-4	-2	·	·	·	0.8	-7
COC(=O)c1cccnc1NC(=S)NNC(=O)c1ccccc1	-4	10	1.4	-7	1	·	·	·	0.6	3
O=C1CCN(Cc2ccccc2)CCN1[C@H](CSc1ccccc1)c1ccccc1	-9	-9	3.7	-10	-1	-2&-16	-4&-29	2.2&-8.1	-0.4	2
CCOC(=O)C1=C(CNCc2ccc(F)cc2)NC(=O)NC1c1cccc([N+](=O)[O-])c1 (centres undefined)	-2	·	1.3	3	-1	-1	14	-5.0	1.0	-7
Cc1ccc(S(=O)(=O)N(CC#N)CC#N)cc1	8	-14	-7.0	?	-3	15	14	1.4	0.1	3
Cc1cc(NC(=O)CCC(=O)N(CC(=O)NCC2CCCO2)c2ccc(C)c(C)c2)no1 (centres undefined)	3	·	0.3	-3	-2	14	8	-1.8	1.0	0
O=C(Nc1cccc(S(=O)(=O)N2CCOCC2)c1)c1ccc(Cl)c([N+](=O)[O-])c1	-30	-2	0.7	-3	-8	6	8	3.1	-0.1	3
Cc1cccc(N2CCN(CC(=O)Nc3nccs3)CC2)c1C	-1	3	-3.0	-7	-6	·	·	·	0.7	8
CCCNC(=O)CSc1n[nH]c(=O)n1CCc1ccccc1	-3	-3	-1.0	22	-4	5	14	-0.5	0.3	-1
O=C(c1ccccc1)n1c(=O)cc[nH]c1=O	-4	2	5.5	-3	-4	1	-4	-3.3	1.0	-5
NC(=O)C1CCN(C(=O)C2CCN(S(=O)(=O)c3ccccc3)CC2)CC1	3	-8	-3.6	0	-2	0	10	0.0	-0.2	-9
COc1ccc(/C=C/C(=O)Nc2ccccc2C(F)(F)F)cc1OC	-21	-4	2.3	?	2	4	1	-0.9	-0.1	2
O=C(COc1ccc(Cl)cc1Cl)NC(=S)Nc1ccc(CN2CCOCC2)cc1	-10	·	1.2	6	-21	-4	-1	0.1	0.4	-7
COc1cc2c(cc1O)C(Cc1ccc(O)cc1)NCC2 (centres undefined)	2	29	0.4	7	-10	2	20	-1.5	0.0	-1
CC(=O)c1ccc(NC(=O)c2cnn3c(C(F)F)cc(C4CC4)nc23)cc1	-3	-11	3.1	-6	-9	·	·	·	0.4	22
COC(=O)C1=C(C)N(C)C(C)=C(C(=O)OC)C1c1ccccc1C	5	-5	2.1	-5	1	·	·	·	1.4	-7
COc1ccc2c(c1OC)C(=O)N(c1ccc(OCc3ccccc3)cc1)C2=O	0	2	-3.3	14	3	8	9	-0.1	0.1	24
COc1ccc(C(CNC(=O)COc2ccccc2C)N2CCOCC2)cc1 (centres undefined)	11	-2	0.8	-4	11	-2	1	-1.2	0.3	3
CCCCCN=CC1=C(O)CC(c2ccccc2)CC1=O (centres undefined)	-11	-3	-1.4	9	-6	8	-8	-3.1	0.5	-6
CCCCCCSc1nsc(NC(C)=O)n1	30	-9	0.6	-8	2	1	-2	0.2	-0.4	-8
CCOCCn1c(CN2CCN(C)CC2)nc2c1c(=O)n(C)c(=O)n2C	-8	-2	-0.3	-2	-6	13	16	-5.5	0.5	10
c1ccc(CCNCCOc2ccccc2)cc1	35	·	5.4	16	-1	7	11	5.1	0.5	-6
CCC1=CC(c2ccccc2)n2ncnc2N1 (centres undefined)	-1	4	-1.5	-2	-3	·	·	·	1.4	-1
COCC(=O)Nc1ccc(F)cc1	-4	-15	-16	-12	·	-3	-8	2.0	1.3	0
Clc1cccc(Cl)c1CN1CCN(c2ncccn2)CC1	4	-2	3.3	4	-8	-22	-20	0.0	0.4	-12
CC1CCCCN1C(=S)NC(=O)c1ccccc1 (centres undefined)	·	18	6.0	·	-7	2	5	-3.1	-0.4	-4
COC(=O)C1=C(C)N(C)C(=O)NC1c1c(O)ccc2ccccc12 (centres undefined)	8	-71	2.4	2	2	-1	4	1.5	0.7	-1
CCn1c(=O)cc(OCC(=O)Nc2ccc(OC)c(OC)c2)c2ccccc21	-14	0	-1.6	-4	-7	0	-6	-2.7	-0.2	-6
COc1ccc(C(=O)Nc2ccc(-c3cn4ccsc4n3)cc2)cc1S(=O)(=O)N1CCOCC1	1	·	2.6	-1	0	·	·	·	-1.1	-1
O=C(CSc1nccn(-c2ccc(F)c(F)c2)c1=O)NC1CCCC1	-4	·	·	1	·	-3	4	-4.5	·	4
CCCCN(CC)CCNC(=O)c1cc2c(=O)[nH]c3ccc(C)cc3c2s1	38	-4	1.8	13	·	-9	4	4.1	-0.1	-2
COC(=O)c1c(NC(=O)COc2ncnc3ccccc23)sc(C)c1C	16	·	·	1	2	-3	-1	-1.3	-0.4	-10
CCS(=O)(=O)N1CCN(c2ccc([N+](=O)[O-])c(NC(C)c3ccccc3)c2)CC1 (centres undefined)	35	-4	3.4	5	21	·	·	·	0.0	14
CCCc1ccc(OCc2ccc(C(=O)O)o2)c(OC)c1	-5	7	-0.4	-1	-3	·	·	·	-6.2	-2
O=C(CC(=O)c1ccccc1)Nc1cccnc1Cl	7	33	4.8	-4	-4	·	·	·	-8.1	-1
COc1cc(NC(=O)c2ccccc2[N+](=O)[O-])ccc1NC(=O)c1cc2ccccc2o1	30	-1	-2.9	-2	0	8	15	0.0	0.8	3
CSc1nc2ccc(Nc3nc(N4CCOCC4)nc(N4CCOCC4)n3)cc2s1	·	98*	-0.7	·	10	·	·	·	-0.3	1
CC1=CC(c2ccc(Cl)cc2)n2ncnc2N1 (centres undefined)	4	35	-2.1	2	-11	·	·	·	0.6	9
CN1CCN(C(=O)c2cc([N+](=O)[O-])cc([N+](=O)[O-])c2)CC1	15	-56	2.4	-5	0	7	10	0.0	0.0	-5
Cc1ccc(-n2c(-c3ccccc3)c[n+]3c2CCc2ccccc2-3)c(C)c1	·	5	-1.5	102*	130*	-53*	-21*	-15*	-2.2	-3
O=C(COC(=O)c1ccc(O)cc1)Nc1ccc(S(=O)(=O)N2CCCC2)cc1	·	·	1.0	·	-1	-7	-5	-0.8	0.7	22
Nc1nc(Nc2ccccc2F)nc(NC2CCCCC2)c1[N+](=O)[O-]	17	-5	1.2	2	-3	11	12	2.9	0.9	19
O=C(N/N=C/c1ccco1)C12CC3CC(CC(C3)C1)C2	-9	-1	-4.4	-24	1	67	12	0.0	0.1	-6
COCCn1nnnc1CN(Cc1ccco1)Cc1cc2cc3c(cc2[nH]c1=O)OCO3	5	6	-2.1	3	-6	·	·	·	0.2	6
Nc1c(C(=O)NC2CC2)c2nc3ccccc3nc2n1-c1ccc2c(c1)OCO2	14	·	-1.0	1	-5	·	·	·	-1.5	3
CC(=O)c1cccc(NC(=O)C2CCCN2S(=O)(=O)c2cccc3nsnc23)c1 (centres undefined)	3	-4	-0.5	-7	-3	-2	2	-0.3	-0.6	1
O=C(NC(=S)NCCc1ccccn1)c1ccccc1	-26	17	8.2	-3	-4	0	-2	-1.0	-0.9	-11
O=C(Nc1ccc(S(=O)(=O)Nc2nccs2)cc1)c1cc(-c2ccncc2)nc2ccccc12	2	·	2.0	-1	-2	-2	-7	-3.5	0.9	6
Cc1ccc(NC(=O)c2cc(N3CCOCC3)nc3ccccc23)cc1	11	-13	-4.5	1	-3	·	·	·	0.3	-8
O=C(NCCSc1ccccn1)c1ccc(Cl)cc1Cl	-8	4	4.5	-5	-1	-15	-13	-0.8	-1.6	5
CCC(=O)Nc1c(C#N)c2nc3ccccc3nc2n1C1CCCCC1	11	·	-0.5	-1	-7	·	·	·	-0.7	7
Fc1cc(Br)ccc1COc1ccc(-c2nnco2)cc1	6	-3	8.5	33	-1	10	13	0.0	-1.5	-1
Fc1ccccc1Cc1noc(CN2CCC(OCc3cccnc3)CC2)n1	2	-2	0.9	-5	·	1	6	5.1	-0.1	-5

Next section
SMILES	T cruzi repl	ALR H2O2 inh	LANA-H2A inh	Calb FLC	Beta cell apopt	rRNA inh HTS	rRNA inh HTS OD600	rRNA inh HTS RFP	Bfl-1 A1 inh	Beta2AR agonist
CC(C)(C)NC(=O)c1cccc(NC(=O)c2ccc(NC(=O)c3ccco3)cc2)c1	-2	-5	-4.6	-17	9	·	·	·	0.7	2
COc1ccc(C(=O)/C=C2/C(=O)Nc3ccccc32)c(OC)c1	9	·	3.3	16	-5	-14	-16	2.8	0.5	23
O=C(Nc1ccccc1OCc1ccccc1)c1ccccc1Br	2	-3	1.4	-1	·	-24	-21	-2.5	-0.5	-9
CCn1ccnc1C(O)c1cccc(OC)c1 (centres undefined)	-6	7	0.1	13	-5	·	·	·	0.6	·
COc1ccc(-c2ccc(C#N)c(SCC(=O)NCCc3ccccc3)n2)cc1OC	21	1	-1.2	·	8	·	·	·	0.6	-5
O=C(NCc1cccnc1)c1cc([N+](=O)[O-])ccc1N1CCOCC1	-4	1	0.4	0	-1	14	14	0.2	-0.4	-12
COc1ccc(C(=O)NC(=S)N(C)C2CCCCC2)cc1	·	-8	-2.3	4	-2	1	-1	4.7	?	10
Cc1nn(-c2ccc(F)cc2)c(C)c1/C=C/C(=O)N1CCNC(=O)C1	15	1	2.7	-4	0	0	-7	3.5	0.5	-1
Cc1cc2c(cc1C)NC1(C(=O)Nc3ccccc31)C1=C(CC(C)(C)CC1=O)N2 (centres undefined)	0	72	2.5	5	-4	·	·	·	1.5	0
COc1ccc(N2CCN(C(=O)CN3C(=O)C4CC=CCC4C3=O)CC2)cc1 (centres undefined)	1	52	-0.6	0	-3	·	·	·	0.0	0
CC(C)Cc1nnc(NC(=O)CSc2nc(O)c(Cc3ccccc3)c(=O)[nH]2)s1	-9	-6	-6.3	-19	-1	12	14	0.5	-0.5	-3
CCOC(=O)c1ccc(COC(=O)CCc2nc3ccccc3[nH]c2=O)o1	-8	-17	-0.9	-8	4	·	·	·	0.9	8
O=C(COC(=O)C1=COCCO1)Nc1cc(Cl)c(Cl)cc1Cl	·	-4	2.7	·	-1	-10	-16	-3.0	-1.8	9
